A1 inh – caspase 3/7 activation in MEF A1-2A-BIM cells, primary screen, A1 inhibitor project, cell-based, luminescence, HTS. Caspase-Glo 3/7 luminescence, 3 h; percent of clofoctol response, vehicle zero. caspase activation, % (test concentration not listed). actives 0.066% (n = 330,000). AID 2462, 2010;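 active = over half of replicate activation scores above 10%, or exactly half above 10 with the replicate mean above 10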;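 note: wells of about 30 µL received 50 nL stock; many hits fall short of the cut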
Ecoli growth – E. coli growth inhibition, primary screen, OD600; Escherichia coli growth, 23 h; stronger effect = lower value; actives 0.21% (n = 330,000); OD600 absorbance (test concentration not listed);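 active = OD600 absorbance below the run mean of sample wells minus 3.6 SD, in any replicate, cut at about 0.56 in these data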;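 note: stock transfer was 300 nL into about 60 µL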
T cruzi inh – inhibitors of intracellular T. cruzi growth, primary screen, luminescence, NIH3T3 host cells; T. cruzi beta-gal in NIH3T3, 90 h; inhibition, % (no concentration beside the values); actives 1.4% (n = 300,000); AID 1885, 2009;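 active = mean inhibition across valid replicates above about 55%, limit read from the data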;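 note: signal also drops with host cell toxicity which is not excluded here; 0% = plate median of DMSO wells and 100% = zero luminescence signal; higher percent means less beta-gal luminescence so fewer parasites; stock transfer was 50 nL into about 50 µL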
AF4-AF9 inh – inhibitors of AF4 peptide binding to AF9, primary screen, biochemical, AlphaScreen, biotin-AF4 peptide, FLAG-AF9, single point; Protein AF-9 (Homo sapiens), P42568; inhibition, % at 10 µM; actives 0.47% (n = 350,000); AID 651704, 2012;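 active = every replicate reaching a set inhibition limit, whatever the replicate mean, cut at about 25% in these data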;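 note: 0% = plate neutral control median and 100% = total signal loss; the record names both 10 and 1 µM as test concentration; the first replicate is given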
Target sequence (P42568 whole entry, looked up): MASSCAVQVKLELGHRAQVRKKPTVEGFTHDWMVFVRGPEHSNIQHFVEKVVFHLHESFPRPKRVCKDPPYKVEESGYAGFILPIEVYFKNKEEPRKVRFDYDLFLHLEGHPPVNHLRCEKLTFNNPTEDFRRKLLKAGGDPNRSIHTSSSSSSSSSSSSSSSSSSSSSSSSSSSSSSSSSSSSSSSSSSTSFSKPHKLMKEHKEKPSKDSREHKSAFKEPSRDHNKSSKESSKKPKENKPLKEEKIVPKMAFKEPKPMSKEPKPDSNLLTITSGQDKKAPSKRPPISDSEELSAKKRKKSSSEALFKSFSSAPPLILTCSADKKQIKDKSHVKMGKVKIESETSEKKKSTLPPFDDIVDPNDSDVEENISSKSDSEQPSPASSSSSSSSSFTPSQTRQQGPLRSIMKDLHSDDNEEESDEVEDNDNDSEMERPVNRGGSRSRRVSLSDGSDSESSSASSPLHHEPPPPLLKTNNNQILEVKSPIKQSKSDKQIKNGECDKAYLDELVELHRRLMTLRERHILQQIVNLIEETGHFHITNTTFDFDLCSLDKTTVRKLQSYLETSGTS
UCH37 DUB inh – inhibitors of human UCH37 deubiquitinase, primary screen, biochemical, Ub-AMC cleavage, fluorescence. Ubiquitin carboxyl-terminal hydrolase isozyme L5 (Homo sapiens), Q9Y5K5. inhibition, % (no concentration beside the values). AID 588478, 2011. actives 0.33% (n = 330,000). purified proteasome/UCH37;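 active = mean of two replicates above 20%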;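 note: 0% = compound-free wells with enzyme and 100% = wells lacking proteasome; stock transfer was 100 nL into about 20 µL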
Target sequence (Q9Y5K5 whole entry, looked up): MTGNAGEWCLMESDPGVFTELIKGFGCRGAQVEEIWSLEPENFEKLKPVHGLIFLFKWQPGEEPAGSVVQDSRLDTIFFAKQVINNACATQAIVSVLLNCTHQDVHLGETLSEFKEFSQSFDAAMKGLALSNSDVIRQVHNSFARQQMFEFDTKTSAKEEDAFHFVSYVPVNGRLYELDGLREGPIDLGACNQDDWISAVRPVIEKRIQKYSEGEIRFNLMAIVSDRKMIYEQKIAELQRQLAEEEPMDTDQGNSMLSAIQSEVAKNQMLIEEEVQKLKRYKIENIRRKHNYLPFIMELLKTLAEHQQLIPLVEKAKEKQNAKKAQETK
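Assay system: Proteasome-bound UCH37. Buffer or medium: pH 7.4 Tris-HCl (50 mM) with ovalbumin, ATP-MgCl2, DTT. Incubation: 30 min preincubation with enzyme, 25 min cleavage at room temperature. Measured by: fluorescence, ex 355 nm, em 460 nm. Read-out basis: percent inhibition. Control set: wells without proteasome as full block, compound-free enzyme plus substrate as uninhibited.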
FGF22 binding – binders of human FGF22 protein, primary screen, FGF22 synaptogenesis inhibitor project, biophysical, thermal shift, single point. calls only at 9.99 µM. recombinant FGF22 thermal shift, SYPRO orange fluorescence; percent of sucrose octasulfate shift, DMSO zero. actives 1.5% (n = 340,000). AID 651658, 2012. Fibroblast growth factor 22 (Homo sapiens), Q9HCT0;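 active = melting point raised past a set limit in the mean and every replicate; three in four hits are not shown here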
Target sequence (Q9HCT0 whole entry, looked up): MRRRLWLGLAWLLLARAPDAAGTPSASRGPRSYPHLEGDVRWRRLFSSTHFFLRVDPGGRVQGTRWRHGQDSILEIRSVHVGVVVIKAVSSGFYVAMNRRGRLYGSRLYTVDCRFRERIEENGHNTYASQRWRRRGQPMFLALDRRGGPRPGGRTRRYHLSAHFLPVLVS
Beta cell apopt – inhibitors of cytokine-induced beta cell apoptosis, primary screen, luminescence. INS-1E cytokine-induced death, ATP luminescence, 48 h; percent of positive-control rescue, neutral wells zero. actives 0.8% (n = 300,000). protection from apoptosis, % (no concentration beside the values);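 active = all replicates at 75% or more, or half of them and the mean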;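 note: 0% = cytokine-treated negative control wells and 100% = positive control rescue; higher means more ATP so stronger rescue from cytokine killing; wells of about 40 µL received 100 nL stock; the first replicate is given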
Ecoli rRNA inh – reduced GFP signal of wild-type E. coli, primary screen, bacterial rRNA inhibitor project, GFP/RFP fluorescence, OD600, single point. E. coli WT GFP vs humanized-ribosome RFP mutants, 24 h; stronger effect = lower value; DMSO median 0, no signal -100. GFP signal change (wild-type ribosome), % (no concentration beside the values). actives 1.6% (n = 350,000);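 active = significant combined selectivity score with lowered wild-type GFP, culture density cut under 30%, mutant RFP and density less affected; inactive = any of these conditions unmet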; note: one replicate is shown; some compounds called inactive have numbers as strong as hits
Ecoli rRNA inh OD600 – further read-out of Ecoli rRNA inh, marked with its call; OD600 change, %; measured here: OD600 growth;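 optical density of the mix in the first replicate; 0 = DMSO median and -100 = no signal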
Ecoli rRNA inh RFP – further read-out of Ecoli rRNA inh, marked with its call; RFP signal change, %; measured here: RFP humanized mutant strains;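 first replicate; 0 = DMSO median and -100 = no signal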
* marks the source's active call; other numbers are inactive results; i = inactive; x = not tested or not shown; & = joins results of further samples. An excerpt; rates above refer to the full screens.

SMILES | A1 inh | Ecoli growth | T cruzi inh | AF4-AF9 inh | UCH37 DUB inh | FGF22 binding | Beta cell apopt | Ecoli rRNA inh | Ecoli rRNA inh OD600 | Ecoli rRNA inh RFP
CCOC(=O)CCCNC(=O)COC(=O)c1cccc(F)c1 | -1.1 | 0.73 | -3.3 | -2.1 | 2.7 | i | -2.6 | -3.1 | 14.4 | -1.9
O=C(OCCCN=C1NS(=O)(=O)c2ccccc21)C1CC(=O)N(c2ccc(Cl)cc2)C1 (stereo not given) | 1.6 | 0.734 | 3.8 | x | 1.2 | x | -5.2 | x | x | x
COc1ccc(CCNc2nc(-c3ccc(O)cc3)cs2)cc1OC | -0.8 | 0.72 | -7.0 | 4.4 | 5.8 | i | 0.5 | -21.1 | -9.4 | 39.5
COCc1cc(C)c(C#N)c(=S)[nH]1 | -0.1 | 0.707 | 3.0 | x | -1.4 | x | -2.5 | x | x | x
Cn1c(CC(=O)c2ccc(Br)cc2)[n+](C)c2ccccc21 | 1.3 | 0.681 | -1.8 | -2.5 | 1.1 | i | 0.8 | 11.1 | -0.7 | -4.7
CCN(Cc1ccccc1)C(=O)Cc1c[nH]c2ccccc12 | 0.3 | 0.696 | 2.1 | 0.4 | 0.3 | i | 0.3 | -0.8 | -8.2 | 0.1
CCCNC(=O)OCCC12CC3CC(CC(C3)C1)C2 | -0.1 | 0.718 | 15.2 | -2.7 | 4.5 | i | 2.8 | -51.8 | -76.4 | -34.0
O=[n+]1cc(-c2ccc(Br)cc2)n([O-])c2c1CCC2 | 1.4 | 0.635 | 1.1 | x | 1.7 | x | 0.0 | x | x | x
C[C@@H]1CN([C@@H](C)CO)C(=O)Cc2cc(NS(=O)(=O)c3ccccc3)ccc2O[C@H]1CN(C)Cc1ccncc1 | 0.6 | 0.76 | x | 5.3&-0.7 | -2.7 | i | -2.3 | -3.5&-2.8 | 4.7&1.6 | 9.3&0.5
COc1ccc(-c2cc(C(=O)Nc3ccccc3O)c3ccccc3n2)cc1 | -3.0 | 0.671 | -3.0 | 1.9 | -0.5 | i | x | 0.6 | -0.9 | 2.7
C[C@@H]1CCCCCCCCC(=O)OCCN(C(=O)OC(C)(C)C)[C@H](C)CCCCCCCCC(=O)OCCN1C(=O)OC(C)(C)C | -0.4 | x | x | -6.5 | -2.0 | i | -6.1 | 4.4 | 3.0 | 1.1
CC(O)c1cccc(N=Cc2ccc3ccccc3c2O)c1 (stereo not given) | 1.1 | 0.636 | -9.4 | 0.9 | 3.8 | i | -5.0 | 4.3 | 9.6 | 1.9
CCN(CC)c1ccc2c(C)c(CO)c(=O)oc2c1 | 0.4 | 0.724 | -25.4 | -5.9 | -256.8 | i | 2.0 | -6.4 | -19.1 | -0.8
O=C(NCCS(=O)(=O)N1CCN(c2ccccc2F)CC1)c1ccc(Br)o1 | 0.3 | 0.694 | -11.9 | 1.6 | 1.0 | i | x | -32.0* | -25.8* | -5.0*
CCOC(=O)CSc1nnc(-c2nnc(SCC(=O)OCC)n2CC)n1CC | -0.7 | 0.734 | -8.7 | x | -2.2 | x | 2.8 | x | x | x
COc1cc(NC(=O)COC(=O)c2ccc([N+](=O)[O-])s2)cc(OC)c1OC | 0.8 | 0.63 | x | -2.1 | 70.6* | i | 3.5 | -13.2 | -6.1 | 2.8
COc1ccc(CC(=O)Nc2sc3c(c2C(N)=O)CCCC3)cc1OC | 0.6 | 0.667 | -2.5 | -0.4 | 0.2 | i | 5.9 | 0.4 | -16.5 | 11.1
Cc1cc(C)n2nc(-c3cnn(C)c3C(F)(F)F)cc2n1 | 0.1 | 0.682 | -3.6 | x | -9.2 | x | 0.5 | x | x | x
CC1=NNC(=O)C1CCC(=O)N/N=C(\C)c1ccc(Cl)cc1 (stereo not given) | 0.4 | x | 4.2 | 0.0 | x | i | -3.3 | 3.4 | 3.7 | 3.2
CCCCOc1ccc(C(=O)Nc2ccc3c(c2)C(=O)NC3=O)cc1 | 0.2 | 0.781 | -1.9 | -7.2 | -173.8 | i | -4.9 | 12.0 | 16.1 | 2.2
Cc1cc(C)n2c(Br)c(CSc3nc4ccccc4s3)nc2n1 | -0.5 | 0.717 | 6.8 | x | -22.3 | x | 53.1 | x | x | x
COc1ccc(C(C2C(=O)CC(C)(C)CC2=O)C2C(=O)CC(C)(C)CC2=O)cc1COCC(F)(F)F | -0.5 | 0.682 | -4.5 | x | 1.3 | x | -4.6 | x | x | x
Cc1cc(C)nc(NC(=O)c2cc(-c3ccc4c(c3)OCO4)nc3ccccc23)c1 | 1.6 | 0.737 | 18.1 | -0.1 | -86.3 | i | -1.1 | 6.6 | 3.0 | 3.1
CC(=O)Nc1c(-c2ccccc2)nc2ccc(Cl)cn12 | 1.5 | 0.632 | 12.6 | -4.0 | -19.5 | i | -2.8 | x | x | x
COc1ccc(CNC(=O)c2ccc(NC(=O)C3=CSCCO3)cc2)cc1 | 0.5 | 0.712 | 36.8 | 0.5 | 4.6 | i | -3.8 | 6.2 | 12.8 | 4.7
O=C(NCC(c1ccco1)N1CCc2ccccc2C1)c1c(F)cccc1F (stereo not given) | 1.3 | 0.703 | 0.1 | -1.8 | 1.3 | x | 1.6 | -2.2 | -4.7 | 5.3
Cc1ccc(NC(=S)NN2CCN(C)CC2)cc1 | 0.1 | 0.657 | 11.1 | x | 4.1 | x | -2.4 | x | x | x
CCC(=O)n1nc(-c2cccnc2)nc1NCc1ccccc1 | x | 0.735 | 12.5 | 2.3 | 1.5 | i | x | -0.9 | 2.4 | -0.8
O=C(CCS(=O)(=O)c1cccs1)Nc1ccc(C(=O)NC2CCN(Cc3ccccc3)CC2)cc1 | 1.0 | 0.695 | 34.0 | -0.2 | -0.7 | i | -3.7 | 0.8 | -7.2 | -5.8
O=C(Oc1ccc(C(=S)N2CCOCC2)cc1)c1ccc(Br)cc1 | -0.5 | 0.701 | -12.8 | x | 1.8 | x | 0.4 | x | x | x
COc1cccc(N(CC(=O)NC2CCCCC2)C(=O)Cn2nnc(-c3ccc(C)o3)n2)c1 | x | 0.69 | 13.4 | 1.4 | 2.9 | i | x | 4.4 | 8.6 | 0.9
Cc1ccc(CNC(=O)COC(=O)c2ccc(S(=O)(=O)NCc3ccco3)cc2)cc1 | 0.1 | 0.716 | x | -2.8 | 0.1 | i | -7.2 | 22.4 | 9.6 | -1.1
Cc1cccc(C(=O)NCC(=O)Nc2ccc(S(=O)(=O)Nc3nc(C)cc(C)n3)cc2)c1 | -0.9 | 0.696 | -12.1 | -2.1 | 4.9 | x | -5.2 | x | x | x
O=C1CC2CCCN2C=C1I (stereo not given) | 0.1 | x | x | -11.4 | 3.2 | i | -3.7 | 9.4 | -2.2 | 32.9
CCN1C(=O)S/C(=C/c2cn(C)c3ccccc23)C1=O | -0.6 | 0.697 | -17.1 | 6.8 | 1.3 | i | 4.5 | 5.9 | -1.2 | -1.9
CN(C(=O)c1cccc(NC(=O)c2ccccc2)c1)C1CCCCC1 | -0.7 | 0.738 | 18.6 | 0.3 | 1.2 | i | x | -14.6 | -13.1 | 2.0
O=C(N=Nc1c(O)[nH]c2ccc(F)cc12)c1ccc(NS(=O)(=O)c2cccs2)cc1 | -1.7 | 0.697 | x | -0.1 | 6.0 | i | -3.6 | 20.0 | 5.0 | 1.9
Oc1ccccc1C1OCC2(CO1)COC(c1ccccc1O)OC2 (stereo not given) | 0.1 | 0.657 | 0.7 | -16.8 | 6.3 | i | 1.5 | 9.2 | 2.4 | 0.6
CCCS(=O)(=O)N1CCC(C(=O)NCCc2ccccc2)CC1 | 0.4 | 0.722 | x | x | -1.0 | x | -3.7 | x | x | x
CN(C)CC1CCCCC1OC(=O)/C=C/c1ccc(Cl)cc1Cl (stereo not given) | -0.2 | 0.649 | 2.3 | 20.4 | 4.0 | i | -0.5 | -20.9 | -19.2 | -7.2

Reformatted: entries from further up
> CN(C(=O)c1cccc(NC(=O)c2ccccc2)c1)C1CCCCC1
  A1 inh: -0.7	Ecoli growth: 0.738	T cruzi inh: 18.6	AF4-AF9 inh: 0.3	UCH37 DUB inh: 1.2	FGF22 binding: i	Beta cell apopt: x	Ecoli rRNA inh: -14.6	Ecoli rRNA inh OD600: -13.1	Ecoli rRNA inh RFP: 2.0

> O=C(N=Nc1c(O)[nH]c2ccc(F)cc12)c1ccc(NS(=O)(=O)c2cccs2)cc1
  A1 inh: -1.7	Ecoli growth: 0.697	T cruzi inh: x	AF4-AF9 inh: -0.1	UCH37 DUB inh: 6.0	FGF22 binding: i	Beta cell apopt: -3.6	Ecoli rRNA inh: 20.0	Ecoli rRNA inh OD600: 5.0	Ecoli rRNA inh RFP: 1.9

Following part:
SMILES | A1 inh | Ecoli growth | T cruzi inh | AF4-AF9 inh | UCH37 DUB inh | FGF22 binding | Beta cell apopt | Ecoli rRNA inh | Ecoli rRNA inh OD600 | Ecoli rRNA inh RFP
CCOC(=O)c1c(C)[nH]c(C(=O)COC(=O)C2CC2C)c1C (stereo not given) | 0.5 | 0.781 | 1.6 | x | 2.9 | x | -5.0 | x | x | x
C=CCCN([C@H](CO)Cc1ccccc1)S(=O)(=O)c1ccccc1Br | x | 0.715 | x | -3.1 | 0.6 | i | x | -52.0 | -79.3 | -19.2
O=C1[C@H]2[C@@H](c3ccc(F)cc3)N3C(=O)N(c4ccc(C(F)(F)F)cc4)C(=O)[C@@]3(Cc3ccccc3)[C@H]2C(=O)N1C1CCCCC1 | 0.3 | x | 36.5 | -1.1 | 4.0 | i | 21.6 | 3.3 | -5.3 | -8.1
COc1ccccc1C(=O)OCC(=O)Nc1ccc(OC(F)F)cc1 | -1.1 | 0.752 | 9.4 | x | 3.4 | x | -0.5 | x | x | x
Cc1cccc2c1cnn2C(=O)CCC(=O)NCC(C)c1ccccc1 (stereo not given) | 0.6 | 0.757 | -11.1 | -6.8 | 3.7 | i | 1.2 | 4.4 | 10.9 | -2.1
CCOC(=O)N1CCN(C(=O)c2nn(C)c3c2CSc2ccccc2-3)CC1 | 0.3 | 0.702 | 1.8 | -11.6 | 0.7 | i | 7.3 | 8.9 | -5.7 | 9.7
Cc1ccc(S(=O)(=O)Nc2ccccc2CNc2cccc(C)n2)cc1 | 0.4 | 0.697 | 28.3 | 0.2 | 2.6 | i | -1.6 | -16.5* | -10.7* | 7.1*
CN(Cc1cc2ccccc2[nH]c1=O)C(=O)COc1ccccc1 | 0.8 | 0.708 | -1.7 | -0.1 | -1.2 | i | -4.7 | 8.4 | 5.3 | -5.2
O=C(CSc1nnc(Cc2cccs2)n1-c1ccccc1)Nc1ccc2c(c1)OCCO2 | -0.5 | 0.723 | 27.6 | x | 0.5 | x | -1.7 | x | x | x
CC(C(=O)Nc1cc(Cl)cc(Cl)c1)N1CCCC1 (stereo not given) | 0.9 | 0.643 | 5.9 | -0.3 | 2.8 | i | x | 7.8 | 7.6 | 0.4
